Source: PubChem BioAssay (Fisher Drug Discovery Resource Center)
NPYLR7 agonist: mosquito NPYLR7 agonism; HEK293T NPYLR7/Galpha15, GCaMP6s calcium fluorescence; AID 1259423; activation, % at 10 µM; 270,000 tested, 0.15% active; in the data active = activation above about 40%;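 note: 0% = vehicle and 100% = reference agonist at the receptor; some compounds past the cut are filed as inactive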
NPYLR7 agonist max-min: further read-out of NPYLR7 agonist, marked with its call; activation, %; measured here: Max-Min RFU normalised activation; some inactives read as strong as hits;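 span of the calcium signal over five minutes; 0% = vehicle and 100% = native peptide agonist; compound fluorescence can raise it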
Starred values were filed as active, the others as inactive. A portion of the library (hit frequency here may not be typical).

SMILES,NPYLR7 agonist,NPYLR7 agonist max-min
O=C(O)C1(O)CCN(c2cc(N3CCOCC3)ncn2)CC1,4,1
COc1ccc(CCN2CCC(CN(C)C(=O)c3ccc4nccnc4c3)CC2)cc1,1,-2
O=C(NCCc1csc2nc(-c3cccs3)nn12)c1ccc(Br)o1,0,0
COc1ccc(-n2ncc(Oc3ccc4c(c3)CCC4)c(Nc3cccc(C(=O)NCc4ccc5c(c4)OCO5)c3)c2=O)cc1,12,13
Cc1cccc(CSc2nc(Oc3cccc(Cl)c3)cc(C(F)(F)F)n2)c1,2,5
CC1(C(=O)NS(=O)(=O)c2ccccc2OC(F)(F)F)CCN1C(=O)c1cccc2ccccc12 (stereo not drawn),2,2
CCc1c(C(=O)O)cnn1-c1cccc(C)c1,-6,-5
Cc1cc(NC(=O)COc2ccc3c(c2)OCO3)no1,-8,-1
CCCC(=O)N1CCC1(C)C(=O)NS(=O)(=O)c1ccccc1C(F)(F)F (stereo not drawn),-1,-3
CC(=O)Nc1ccc(NC(=O)C(C)NC2CCCC(C)C2C)cc1 (stereo not drawn),1,1
Cc1cc(C(=O)CN2C(=O)C(=O)N(CCc3cccs3)C2=O)c(C)n1Cc1ccco1,4,12
CCN(CC)CCn1c2c(c(SCC(=O)Nc3nc4ccccc4s3)nc1=O)CCCC2,-1,5
Cc1cc(Cl)ccc1NC(=O)Cn1c2ccccc2c(=O)c2ccccc21,-2,-7
COc1ccc(N(Cc2ccccc2O)C(=S)NC2CC2)cc1,1,-1
Cc1ccc(-c2csc3ncn(N4C(=O)CC5CS(=O)(=O)CC54)c(=O)c23)cc1 (stereo not drawn),3,-2
O=c1nc(SCc2cccc(Cl)c2)nc2ccccn12,0,-3
O=C(NC1CCN(CCn2cc(Br)cn2)CC1)c1ccsc1,0,33
C=Cc1ccc(Cn2c(C)c(C(=O)NCc3ccc(F)cc3)sc2=O)cc1,13,5
O=C(NCCc1nc2ccccc2o1)c1cccc(Cn2cccn2)c1,-6,-7
COc1cccc2c1OCC(C(=O)N1C[C@@H]3[C@@H]4CC[C@@H](C4)[C@@H]3C1)C2 (stereo partly drawn),-4,-4
CCOC(=O)N1CCc2nc(NC(=O)c3ccnn3CC)sc2C1,0,0
CCOC(=O)C1(CCOC)CCN(Cc2cccc3c2oc2ccccc23)CC1,6,2
COc1cccc(C(=O)NCC(=O)N=Nc2c(O)n(CCc3ccccc3)c3ccccc23)c1,2,-6
CCOC(=O)C1(NC(=O)C2=NN(C)C(=O)CC2)CCCCC1,4,5
Cc1csc(C2C(N)=NC(=S)C(C#N)C23CCCCC3)n1 (stereo not drawn),15,26
COc1ccc(N2C(=O)CC(N3CCSCC3)C2=O)cc1 (stereo not drawn),2,0
O=C(NCC(c1cccnc1)N1CCc2ccccc2C1)c1ccc([N+](=O)[O-])cc1 (stereo not drawn),-1,-7
Cc1cc(C(=O)OCc2cc(=O)n3ccsc3n2)c(C)n1C1CC1,1,0
Cc1nc2cc(C(F)(F)F)ccc2n1C1CCN(C(=O)Cc2cccc(F)c2)CC1,-4,-8
CN1CCN(C(=O)Nc2ccc(Br)cc2F)CC1,10,5
Cc1ccc(S(=O)(=O)Nc2ccc(Nc3nc(C)cc(N4CCCC4)n3)cc2)cc1,7,2
CS(=O)(=O)N1CCCC1C(=O)NCc1cnn2ccccc12 (stereo not drawn),6,3
COc1ccc(F)cc1C(=O)N(CCCO)Cc1ccc(C)s1,3,1
CCOC(=O)CC(=O)CSc1nc2sc(C)c(C)c2c(=O)n1Cc1ccco1,1,0
COc1ccc(-c2nccn2CCc2ncccc2C)c(C)c1C,10,1
O=C(NC(=S)NCc1ccccc1)c1cccs1,-1,35
Brc1cnc(N2CCCCC2)nc1N1CCOCC1,15,5
Nc1nnc(-c2ccc(Cl)c(Cl)c2)s1,-1,-3
CC1NC(=S)N(c2ccc(OCc3ccccn3)c(Cl)c2)C1=O (stereo not drawn),5,3
CCC(NC(=O)C(=O)c1ccco1)c1cc(C)ccn1 (stereo not drawn),-2,-5
Cc1nc2ncccn2c1C(=O)N1CCCC2(C1)C(=O)Nc1ccccc12 (stereo not drawn),3,1
Cc1nn(C)c(C)c1CN(C(=O)c1ccc(-n2cnnc2)cc1)C(C)C,-1,0
COC(=O)c1ccc(COC(CN2CCN(C(=O)c3c(C)noc3C)CC2)c2ccc(Cl)cc2)cc1 (stereo not drawn),2,-3
c1nc(CN2CCCCC2CCN2CCOCC2)cs1 (stereo not drawn),0,-10
Cc1nccn1-c1ccc(NC(=O)C2CCCN(C3CCSCC3)C2)cc1 (stereo not drawn),12,0
CC1=CCC=CC1C(=O)N1CCC(n2cnc3ccccc32)CC1 (stereo not drawn),14,21
CCc1cc2c(=O)c(-c3nc4ccccc4n3C)c(C)oc2cc1O,-7,-12
CC12CCC(C(N)=O)(C1Br)C2(C)C (stereo not drawn),-3,-4
O=C(NCCc1ccccn1)c1nn(-c2ccccc2F)c(=O)n(Cc2cccc(Cl)c2)c1=O,-7,1
S=c1oc2ccc(Cl)cc2n1CN1CCOCC1,8,5
CCCCOCC1CC2(SC(N)=NC2=O)C(=O)O1 (stereo not drawn),-1,-3
Cc1onc(-c2ccccc2)c1C(=O)Nc1ccc([N+](=O)[O-])cc1Cl,3,0
O=C(Nc1cccc2ccccc12)N1CCC2(CC1)SCCN2C(=O)c1ccc(F)cc1,10,4
Clc1ccc2nnc(NC3CCCCC3)n2n1,-8,-10
CC1(C(=O)NS(=O)(=O)c2ccc(Cl)s2)CCN1C(=O)CCc1ccc(Cl)cc1Cl (stereo not drawn),5,1
O=C(NCC(=O)N1CCN(c2ncccn2)CC1)c1cccc(F)c1,-6,-3

More results follow.
SMILES,NPYLR7 agonist,NPYLR7 agonist max-min
CCN(CC)c1ccc2cc(C(=O)Nc3cccc(C(=O)O)c3C)c(=O)oc2c1,11,6
CCc1ccc(-c2nccn2CC2(O)CCCCC2)nc1,-3,-11
CCc1nc2c(OCc3ccc(Cl)cc3Cl)cccn2c1N(C)C(=O)C(C)C,1,7
CSc1ccc(C(=O)N2CCCC(O)C2)c(-c2cccc(F)c2)c1 (stereo not drawn),-8,-11
O=C(CCn1cnnn1)N1CCCC(CNC(=O)C2(c3ccc(Cl)cc3)CC2)C1 (stereo not drawn),12,7
CC(CN1CCOCC1)NS(=O)(=O)c1ncn(C)c1Cl (stereo not drawn),8,5
COc1ccc(C(NC(=O)C2CCN(Cc3cccc(Cl)c3)CC2)c2ccccn2)cc1 (stereo not drawn),8,0
CC(=O)Nc1ccc(CN2CCC2(C)C(=O)NCc2ccc(C(F)(F)F)cc2)cc1 (stereo not drawn),5,-2
CN(Cc1ccco1)S(=O)(=O)c1ccc2c(c1)oc(=O)n2C,4,2
Cc1ccc(S(=O)(=O)NCCc2nnc3ccc(SCc4cccnc4)nn23)cc1,-12,-12
CCCCN1CCN(C(=O)c2cn(CC)cc3c(=O)n(-c4ccccc4)nc2-3)CC1,-1,-4
CC(C)c1nn(C)cc1C(=O)NC1CCOc2ccccc21 (stereo not drawn),0,-2
O=S1(=O)c2cccc3cccc(c23)N1CCc1ccccc1,1,-1
COc1ccc(-c2ccc(NS(=O)(=O)c3ccc(OC)c(C)c3)cc2)nn1,0,10
O=C(c1ccc(C(F)(F)F)cc1)N1CCCC(OCC2CC2)C1 (stereo not drawn),4,7
Cn1ccnc1C(NC(=O)COc1cc(Cl)ccc1Cl)c1ccccc1F (stereo not drawn),5,2
Clc1ccc(Cl)c(SCc2csc(Cc3ccc4c(c3)OCO4)n2)c1,1,2
COCc1cnc2c(c1SCC(=O)Nc1cccc3ccccc13)c(=O)n(C)c(=O)n2C,4,11
Cn1c(CNc2ccc(F)cc2)n[nH]c1=S,2,2
COc1ccnc(N2C[C@H]3C[C@H](C2)[C@@H]2CCCC(=O)N2C3)n1,17,5
CC(C)CN1CCC1(C)C(=O)Nc1nccc2ccccc12 (stereo not drawn),1,-2
CCCc1ccc(-c2nc(NC(=O)C3CCCCN3S(C)(=O)=O)sc2C)cc1 (stereo not drawn),1,-3
N#CCCNN=Cc1cc(I)c(O)c(I)c1,-1,2
CN(C)CCN(Cc1ccsc1)C(=O)c1ccco1,1,-3

Part of the list above, with values under each structure.
Every second line gives: NPYLR7 agonist | NPYLR7 agonist max-min
CC(CN1CCOCC1)NS(=O)(=O)c1ncn(C)c1Cl (stereo not drawn)
    8 | 5
COc1ccc(C(NC(=O)C2CCN(Cc3cccc(Cl)c3)CC2)c2ccccn2)cc1 (stereo not drawn)
    8 | 0
CC(=O)Nc1ccc(CN2CCC2(C)C(=O)NCc2ccc(C(F)(F)F)cc2)cc1 (stereo not drawn)
    5 | -2
CN(Cc1ccco1)S(=O)(=O)c1ccc2c(c1)oc(=O)n2C
    4 | 2
Cc1ccc(S(=O)(=O)NCCc2nnc3ccc(SCc4cccnc4)nn23)cc1
    -12 | -12
CCCCN1CCN(C(=O)c2cn(CC)cc3c(=O)n(-c4ccccc4)nc2-3)CC1
    -1 | -4
CC(C)c1nn(C)cc1C(=O)NC1CCOc2ccccc21 (stereo not drawn)
    0 | -2
O=S1(=O)c2cccc3cccc(c23)N1CCc1ccccc1
    1 | -1
COc1ccc(-c2ccc(NS(=O)(=O)c3ccc(OC)c(C)c3)cc2)nn1
    0 | 10
O=C(c1ccc(C(F)(F)F)cc1)N1CCCC(OCC2CC2)C1 (stereo not drawn)
    4 | 7
Cn1ccnc1C(NC(=O)COc1cc(Cl)ccc1Cl)c1ccccc1F (stereo not drawn)
    5 | 2
Clc1ccc(Cl)c(SCc2csc(Cc3ccc4c(c3)OCO4)n2)c1
    1 | 2
COCc1cnc2c(c1SCC(=O)Nc1cccc3ccccc13)c(=O)n(C)c(=O)n2C
    4 | 11
Cn1c(CNc2ccc(F)cc2)n[nH]c1=S
    2 | 2
COc1ccnc(N2C[C@H]3C[C@H](C2)[C@@H]2CCCC(=O)N2C3)n1
    17 | 5
CC(C)CN1CCC1(C)C(=O)Nc1nccc2ccccc12 (stereo not drawn)
    1 | -2
CCCc1ccc(-c2nc(NC(=O)C3CCCCN3S(C)(=O)=O)sc2C)cc1 (stereo not drawn)
    1 | -3
N#CCCNN=Cc1cc(I)c(O)c(I)c1
    -1 | 2
CN(C)CCN(Cc1ccsc1)C(=O)c1ccco1
    1 | -3

Following part
SMILES,NPYLR7 agonist,NPYLR7 agonist max-min
Cc1ccoc1C(=O)NCCN1C(=O)SC(=Cc2ccc(Cl)c(Cl)c2)C1=O,-1,5
CCOC(=O)N1CCN(Cc2nc3c(c(=O)n(C)c(=O)n3C)n2Cc2ccc(Cl)cc2)CC1,0,18
Cc1cc2nc(C3CC3)cc(C(F)F)n2n1,-4,1
Cc1cccnc1NC(=O)c1ccc(=O)n(Cc2cccc(C(F)(F)F)c2)c1,11,8
COc1ccc(CCN(Cc2ccc(C)o2)C(=O)CN(CCN2CCCC2)C(=O)CCc2ccccc2)cc1OC,0,2
O=C(NCCN1CCOC(c2ccccc2)C1)C(=O)Nc1ccon1 (stereo not drawn),-8,-9
COc1cccc(Cn2c(=O)c(C(=O)NCc3ccco3)nn(-c3cccc(OC)c3)c2=O)c1,9,12
CSc1nc2c(c(=O)[nH]1)C(c1ccc3c(c1)OCO3)C1C(=O)CCCC1=N2 (stereo not drawn),0,-1
c1ccc2c3c(c(CN4CCCC4)cc2c1)COC3,5,1
COC(=O)c1sc(N)c(C(=O)OC)c1CSc1n[nH]c(N)n1,3,2
O=C(CCCc1nnc2c(=O)n(-c3ccc(Cl)cc3)ccn12)N1CCN(c2ccccc2)CC1,0,-5
CCOC(=O)C1=NN(C(C)=O)C2C(=O)N(Cc3ccccc3)C(=O)C12 (stereo not drawn),2,1
O=[N+]([O-])c1ccc(N=Nc2c(O)[nH]c3ccc(Br)cc23)cc1,-6,-6
